Screening results: PubChem, National Center for Advancing Translational Sciences (NCATS)
Cruzain Triton: cruzain (T. cruzi) inhibition with detergent; AID 1478; Potency, µM, without a hit: max response, negative = inhibition, most hits filed as inhibitors; purified cruzain, Z-FR-AMC fluorescence, 0.01% Triton; 200,000 tested, 0.43% active; P25779; active means well fitted curve in the direction sought with a large enough effect; inconclusive means small, poorly fitted or top-dose-only effect, or another doubt; inactive means no such curve, though single readings can be large; an effect the other way counts as inactive or inconclusive;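 further: plate controls were neutral wells for no effect and buffer without enzyme for full effect; nearly all actives have a fitted effect of over 40% in size; top concentration of the series not given in the record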
Target sequence (P25779 123-467 limits assumed): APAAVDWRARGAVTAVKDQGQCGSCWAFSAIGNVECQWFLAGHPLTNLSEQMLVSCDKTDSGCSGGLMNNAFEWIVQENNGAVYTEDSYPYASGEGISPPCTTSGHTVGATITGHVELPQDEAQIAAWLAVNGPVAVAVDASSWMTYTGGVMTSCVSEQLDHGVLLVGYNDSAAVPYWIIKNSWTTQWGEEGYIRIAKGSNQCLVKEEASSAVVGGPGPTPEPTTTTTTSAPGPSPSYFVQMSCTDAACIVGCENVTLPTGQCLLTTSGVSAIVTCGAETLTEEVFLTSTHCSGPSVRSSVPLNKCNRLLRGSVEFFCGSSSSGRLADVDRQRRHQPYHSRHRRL
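Sodium acetate buffer (100 mM, pH 5.5) containing 5 mM DTT and 0.01% Triton X-100 hosted 1.5 nM cruzain and test compound for 15 min at room temperature. Cleavage of 2 uM Z-FR-AMC was then tracked by fluorescence.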
StopGo reporter: FMDV 2A StopGo reporter, luciferase signal; Potency, µM (titrated, usually from 57.9 µM), without a hit: top-dose signal change, negative = less light; human cells with a luciferase reporter of 2A StopGo recoding; control for the full effect not named in the record; 410,000 tested, 1.2% active; active = well fitted falling curve with a large enough effect; inconclusive = small, poorly fitted or top-dose-only effect; inactive = no such curve, though single readings can be large or run the other way; tested in HEK293T cells; further: on the % scale 0 is the no-effect control and ±100 the full control effect; nearly all actives have a fitted effect of over 45% in size; luciferase light after 4 h
RE007 growth inh: less growth of the S. pombe RE007 Vpr strain | S. pombe RE007 Vpr strain, BacTiter-Glo ATP luminescence, 24 h; control for the full effect not named in the record | Potency, µM (titrated, usually from 92.2 µM), for the others: at the top dose activity change, negative = less growth | 360,000 tested, 0.21% active | AID 651644; active = well fitted falling curve with a large enough effect; inconclusive = small, poorly fitted or top-dose-only effect; inactive = no such curve, though single readings can be large or run the other way;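 further: on the % scale 0 is the no-effect control and ±100 the full control effect; nearly all actives have a fitted effect of over 50% in size; the assay follows cell death caused by Vpr and the record does not say whether a fall means rescue or toxicity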
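Fission yeast RE007 carrying one integrated HIV-1 vpr copy, seeded at OD 0.01 in PMG+AL medium with 23 nL pinned compound. Grown 24 h at 30 degrees; viability read by BacTiter-Glo luminescence after 5 min.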
Lassa entry inh: Lassa virus entry inhibition; Lassa virus pseudotype entry inhibition, cell reporter; control for the full effect not named in the record; Potency, µM (titrated, usually from 37.9 µM), without a hit: top-dose activity change, negative = inhibition, usual class: inhibitors; 300,000 tested, 1.2% active; active means well fitted inhibition curve with a large enough effect; inconclusive means small, poorly fitted or top-dose-only effect, or effect the other way; inactive means flat fitted curve, though single readings scatter; tested in HEK293 cells; further: on the % scale 0 is the no-effect control and ±100 the full control effect; nearly all actives have a fitted effect of over 50% in size; luciferase read-out
NS1 function inh: blocks influenza NS1 protein function; Potency, µM (doses to about 46.1 µM), without a hit: at the top dose activity, positive = more growth; 270,000 tested, 0.4% active; AID 2326; S. cerevisiae slowed by influenza A NS1, growth recovery by OD600; further: actives are rising curves; nearly all actives have a fitted effect of over 50% in size
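A cell-based growth assay was used: compounds that relieve NS1-induced slow growth of budding yeast raise OD600. Assay medium was yeast nitrogen base with ammonium sulphate and -URA supplement, pH 6.0, with 2% galactose.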
SARS PLP yeast: blocks SARS-CoV papain-like protease in a yeast assay; Potency, µM (series often up to 32.9 µM), for inactives: at the highest dose activity, positive = growth rescue; AID 485353; S. cerevisiae expressing SARS-CoV PLpro, growth rescue; control for the full effect not named in the record; 330,000 tested, 0.19% active; further: 0% is about no effect; nearly all actives have a fitted effect of over 55% in size; growth read by luminescence after 48 h
MARV entry inh: Marburg virus entry inhibition | 300,000 tested, 1.8% active | Marburg virus pseudotyped entry inhibition, cell reporter; control for the full effect not named in the record; about a third of the inactives were read at about 46 µM | Potency, µM (titrated, usually from 37.8 µM), without a hit: top-dose activity change, negative = inhibition, most hits filed as inhibitors; active = well fitted inhibition curve with a large enough effect; inconclusive = small, poorly fitted or top-dose-only effect, or effect the other way; inactive = flat fitted curve, though single readings scatter; tested in HEK293 cells; about a fifth of its hits are not listed in these tables; further: on the % scale 0 is the no-effect control and ±100 the full control effect; luciferase read-out
Cruzain inh noDet: cruzain (T. cruzi) inhibition without detergent | AID 1476 | Potency, µM, inactives show max response, negative = inhibition, actives largely listed as inhibitors | purified cruzain, Z-FR-AMC fluorescence, no detergent | 200,000 tested, 2.3% active; active means well fitted curve in the direction sought with a large enough effect; inconclusive means small, poorly fitted or top-dose-only effect, or another doubt; inactive means no such curve, though single readings can be large; an effect the other way counts as inactive or inconclusive;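 further: plate controls were enzyme without inhibitor for no effect and buffer without enzyme for full effect; nearly all actives have a fitted effect of over 40% in size; top concentration of the series not given in the record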
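Purified cruzain at 1.5 nM, pre-incubated 15 min with compound at room temperature in 100 mM sodium acetate pH 5.5, 5 mM DTT, 0.00005% Triton X-100. Reaction started with 2 uM Z-FR-AMC; AMC fluorescence increase over 60 s gives rate.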
An asterisk follows results filed as active; ? = inconclusive; nt = no result given; [ ] = remark or other dose. Unless noted, the call rests on the fitted dose curve; in most records, active means well fitted rising curve with a large enough effect; inconclusive means small, poorly fitted or top-dose-only effect; inactive means no such curve, though single readings can be large or run the other way. Potency means the concentration at half of the fitted maximal effect. Hits appear at their usual frequency; about 4.6% have a hit in one of these screens.

SMILES	Cruzain Triton	StopGo reporter	RE007 growth inh	Lassa entry inh	NS1 function inh	SARS PLP yeast	MARV entry inh	Cruzain inh noDet
COc1ccc(-n2c(=S)[nH]c3cc(C(=O)NCCCN4CCOCC4)ccc3c2=O)cc1OC	nt	-4%	28%	16%	7%	-12%	-4%[46.1 µM]	nt
Cc1ccccc1S(=O)(=O)Cc1ccc(C(=O)NCCCOC(C)C)o1	5.6%	-9%	13%	-1%	-9%	9%	4%	6%
CCO/C=C/C(O)(CNC(=O)c1ccc(C(C)(C)C)cc1)C(F)(F)F (stereo not given)	-2.7%	20%	-2%	?	-37%	-31%	-7%	2%
CC(C)CCNc1ncnc2c1cnn2-c1cccc(Cl)c1	-1.5%	20%	nt	10%[46.1 µM]	nt	nt	nt	1%
COc1ccc(C)cc1NC(=O)c1noc2c1CSc1ccccc1-2	-0.9%	1%	nt	9%[46.1 µM]	nt	nt	0%[46.1 µM]	-1%
O=C(NCCCCNC(=O)c1ccccc1Cl)c1ccccc1Cl	nt	21%	-3%	1%[46.1 µM]	12%	1%	6%[46.1 µM]	nt
O=Cc1cccnc1SCc1ccccc1	nt	24%	-2%	12%[46.1 µM]	nt	nt	?	nt
CC(=O)c1c(N2CCOCC2)nc(=S)n(-c2cc(C)ccc2C)c1C	-0.2%	21%	0%	-2%	5%	1%	24%	-17%
C=CCN(CC=C)C(=O)Nc1cc(Cl)ccc1OC	1.2%	0%	-14%	7%	-62%	-7%	0%	-7%
COc1cccc(C2C3=C(Nc4[nH]n(-c5ccccc5)c(=O)c42)c2ccccc2C3=O)c1 (stereo not given)	-17%	nt	nt	-4%	-5%	0%	2%	-20%
CC(C)NCC(O)c1ccc(C2CCCC2)cc1 (stereo not given)	0.4%	-13%	-7%	-21%	-13%	-9%	?	0%
Cc1cc(C)c(S(N)(=O)=O)c(C)c1N(C)S(=O)(=O)c1ccccc1	nt	-5%	-3%	4%[46.1 µM]	2%	2%	?	nt
CN(CC(=O)Nc1cccc(F)c1)C(=O)CN1C(=O)C2CC=CCC2C1=O (stereo not given)	nt	-12%	2%	-11%	nt	-2%	-2%	nt
CC(C)(C)OC(=O)CNC(=O)c1nc[nH]c1C(=O)N1CCN(C(=O)OC(C)(C)C)CC1	nt	-28%	-2%	nt	-4%	-1%	nt	nt
Cc1c(CCO)c(=O)n(-c2ccccc2)n1S(=O)(=O)c1ccc(Cl)cc1	3.2%	12%	-15%	0%	3%	5%	-9%[46.1 µM]	1%
CC(=O)Nc1ccc2nc(SCC(=O)Nc3ccc(N4CCOCC4)c(Cl)c3)sc2c1	-5.2%	-9%	3%	-16%	-11%	5%	-2%	?
CCn1c(=O)c2sccc2n2c(CCC(=O)N3CCN(c4ccccc4OC)CC3)nnc12	9.2%	-4%	nt	5%[46.1 µM]	nt	nt	3%[46.1 µM]	-6%
O=C(NC1CCCCC1)C(c1ccco1)N(Cc1cccnc1)C(=O)C1COc2ccccc2O1 (stereo not given)	-0.5%	nt	0%	?	-16%	?	?	-6%
COc1cc2c(cc1NC(=O)COC(=O)Cn1cnc3ccccc31)oc1ccccc12	-7.7%	51%[activator]	15%	2%	-55%	-31%	?	19%
Cc1cc(Cl)c2oc(C(=O)N3CCN(C4CCS(=O)(=O)C4)CC3)c(C)c2c1 (stereo not given)	nt	-7%	-2%	nt	-6%	-3%	nt	nt

For convenience, some entries already given.
SMILES	Cruzain Triton	StopGo reporter	RE007 growth inh	Lassa entry inh	NS1 function inh	SARS PLP yeast	MARV entry inh	Cruzain inh noDet
COc1cccc(C2C3=C(Nc4[nH]n(-c5ccccc5)c(=O)c42)c2ccccc2C3=O)c1 (stereo not given)	-17%	nt	nt	-4%	-5%	0%	2%	-20%
CC(C)NCC(O)c1ccc(C2CCCC2)cc1 (stereo not given)	0.4%	-13%	-7%	-21%	-13%	-9%	?	0%

Continued:
SMILES	Cruzain Triton	StopGo reporter	RE007 growth inh	Lassa entry inh	NS1 function inh	SARS PLP yeast	MARV entry inh	Cruzain inh noDet
CCOc1cc(C2c3c(oc4ccc(F)cc4c3=O)C(=O)N2Cc2ccco2)ccc1O (stereo not given)	-0.9%	13%	nt	18%[46.1 µM]	nt	nt	-21%[46.1 µM]	-15%
CCC(Sc1nc2ccccc2o1)C(=O)Nc1nnc(C)s1 (stereo not given)	1.1%	-1%	1%	17%	-1%	-24%	-14%	2%
CCN1CCN(c2cc(C)c3cc(NC(=O)/C=C/c4cccc(OC)c4OC)ccc3n2)CC1	-7.6%	-12%	nt	?	nt	nt	7.1µM*	-2%
O=C(c1cc2cc(F)ccc2[nH]1)N1CCc2ccccc21	nt	17%	-15%	nt	-1%	0%	nt	nt
Cc1cc(OCC(O)CNC(C)c2ccccc2)ccc1C(C)C (stereo not given)	nt	?	26%	?	-16%	-3%	?	nt
CC(C)CC(C(=O)OCC(=O)c1c(N)n(C)c(=O)n(C)c1=O)N1C(=O)C2CC=CCC2C1=O (stereo not given)	nt	-12%	8%	2%	nt	0%	4%	nt
CCc1nc(C(N)=O)c2[nH]c(=O)n(-c3ccc(OC)cc3OC)c2n1	nt	0%	-29%	nt	17%	3%	nt	nt
Cc1cccc(CCNC(=O)CCS(=O)(=O)c2ccc3nc(C)sc3c2)c1	nt	-7%	10%	nt	5%	?	nt	nt
Cc1sc2ncnc(SCC(=O)N(C)C3CCS(=O)(=O)C3)c2c1C (stereo not given)	nt	-2%	-9%	-6%	1%	-1%	-4%	nt
Cc1ccc2c(c1)N(C(C)C(=O)NCc1ccccn1)C(=O)CO2 (stereo not given)	nt	4%	5%	nt	-2%	0%	nt	nt
CCOC(=O)c1ccc(N/C(=N\S(=O)(=O)c2ccc(F)cc2F)c2ccccc2)cc1	-6.6%	-10%	-4%	?	-2%	-23%	?	-11%
Cc1ccc(OCCN(C)C(=O)CC2C(=O)NCCN2CC(C)(C)C)cc1 (stereo not given)	nt	0%	-16%	-13%[46.1 µM]	1%	-1%	-23%[46.1 µM]	nt
COC(=O)c1c(NC(NC(=O)C(C)(C)C)C(Cl)(Cl)Cl)sc2c1CCC2 (stereo not given)	0.0%	-8%	2%	-16%	-5%	-15%	?	-16%
CC(=O)Nc1sc2c(c1C#N)CCC2	nt	33%[activator]	-25%	0%[46.1 µM]	nt	0%	-3%[46.1 µM]	nt
CN(CC(=O)Nc1c(Cl)cccc1Cl)C(=O)c1ccc(-n2cncn2)c([N+](=O)[O-])c1	nt	-21%	-6%	5%	nt	5%	?	nt
CN(C)S(=O)(=O)c1cccc(NC(=O)c2cccc(S(=O)(=O)N3CCCCCC3)c2)c1	nt	?	5%	?	nt	1%	?	nt
c1ccc2nc(SCc3cn4ccccc4n3)cnc2c1	nt	33%[activator]	-19%	nt	-3%	3%	nt	nt
CC1CCN(c2c([N+](=O)[O-])c(=O)oc3ccccc23)CC1	-8.3%	?	-13%	0%	?	2%	?	-4%
O=C(O)C1C2C=CC(C2)C1C(=O)NCCc1ccccc1 (stereo not given)	7.2%	14%	14%	-2%	7%	-2%	8%	-1%
Cc1ccccc1CSCc1ccc(C(=O)NCCc2ccccc2)o1	-0.1%	0%	nt	15%[46.1 µM]	nt	nt	nt	-7%
O=C(CSc1nnc(-c2cccs2)n1-c1cccc(Cl)c1)c1cccc2c1OCCO2	2.0%	10%	4%	?	18%	-2%	?	25µM*
CCN(CC)CCNC(=O)C(=O)NCC(c1ccc2c(c1)OCO2)N1CCOCC1 (stereo not given)	-2.0%	1%	nt	18%[46.1 µM]	nt	nt	nt	3%
NC(=O)CNc1ncc(C(F)(F)F)cc1Cl	nt	-18%	49%	?	nt	-2%	17%[46.1 µM]	nt
O=C(NCCc1cccc(Cl)c1)C1CCC(=O)N(Cc2ccc(Cl)cc2)C1 (stereo not given)	nt	11%	1%	-19%	-5%	0%	?	nt
CCCCCn1c(=O)[nH]c2cc(C(=O)N3CCN(c4cccc(OC)c4)CC3)ccc2c1=O	-4.7%	?	nt	?	nt	nt	?	0%
Cc1ccc(N/N=C(\C#N)C(=O)c2ccsc2)cc1	nt	14%	-12%	nt	-64%	-3%	nt	nt
Cc1cccc(OCC(=O)NC(C)C(=O)N/N=C/c2c(OCc3ccccc3)ccc3ccccc23)c1 (stereo not given)	0.5%	9%	4%	3%	0%	11%	?	16µM*
O=C(NCCc1cccnc1)C1CCC(=O)N(Cc2cccc(C(F)(F)F)c2)C1 (stereo not given)	nt	-6%	-22%	7%	19%	2%	-4%	nt
O=c1oc2ccc3ccccc3c2cc1-c1nnc(Nc2ccccc2F)s1	1.8%	-20%	nt	16%[46.1 µM]	nt	nt	nt	-3%
CCCCc1c(C)c(C#N)c2[nH]c3ccccc3n2c1=O	-8.0%	22µM*	4%	?	-217%	-27%	?	6%
COc1ccc(-c2nnc(SCC(=O)Nc3ccc(Cl)cc3)n2C)cc1	0.4%	nt	4%	-2%	-1%	10%	-5%	?
Cc1c(=O)n(OCc2ccccc2)c2ccccc2[n+]1[O-]	-7.1%	-23%	-13%	-3%	-5%	-2%	1%[46.1 µM]	2%
Cc1ccc(NS(=O)(=O)c2ccccc2Cl)c2c1CC(C)(C)O2	-6.5%	2%	?	-4%	-38%	-13%	-9%	-2%
COC(=O)c1c(NC(=O)c2ccc(S(=O)(=O)N3CCOCC3)cc2)sc2c1CCN(C)C2	-6.9%	-2%	-18%	0%	-9%	-6%	-24%	-7%
CN(Cc1ccccc1)C(=O)C1CCCN1S(=O)(=O)c1ccc2c(c1)n(C)c(=O)c(=O)n2C (stereo not given)	nt	-16%	-11%	26%	1%	-1%	15%[46.1 µM]	nt
CCOC(=O)c1c(C)n(-c2ccc(OC)cc2)c2ccc(O)c(CN(C)C)c12	nt	?	13%	nt	6%	-3%	nt	nt
O=C(CC1SC(=Nc2ccccc2)N(Cc2ccccn2)C1=O)Nc1ccc(Br)cc1 (stereo not given)	-8.1%	17%	6%	-28%	?	11%	?	?
CCOc1ccc(CCNC(=O)COC(=O)c2ccco2)cc1OCC	1.6%	-4%	6%	3%	-4%	-1%	-10%	9%
